GALR2 ag = activates the human galanin receptor 2. O43603. GALR2-expressing cells, agonist activation read-out. activation, %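 (tested at 5 µM)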. 0.48% of 140,000 active;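 active = above mean plus 3 SD of all compounds, about 5% in these data, not always enough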;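 also: 0% = vehicle buffer wells and 100% = reference agonist at full effect; tested in CHO reporter cells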
Target sequence (O43603 whole entry, looked up): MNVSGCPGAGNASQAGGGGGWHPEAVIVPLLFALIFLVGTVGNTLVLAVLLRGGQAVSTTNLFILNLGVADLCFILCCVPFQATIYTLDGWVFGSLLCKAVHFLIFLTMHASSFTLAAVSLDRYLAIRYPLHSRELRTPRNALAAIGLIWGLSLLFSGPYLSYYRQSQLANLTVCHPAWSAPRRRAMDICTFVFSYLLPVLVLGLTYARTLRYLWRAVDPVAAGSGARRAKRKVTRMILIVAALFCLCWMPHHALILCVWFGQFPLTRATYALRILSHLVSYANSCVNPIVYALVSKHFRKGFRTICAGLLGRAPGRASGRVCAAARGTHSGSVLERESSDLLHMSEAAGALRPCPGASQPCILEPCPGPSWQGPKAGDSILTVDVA
Insulin prom inh = TRM-6 insulin promoter activity inhibition; TRM-6 cells (human fetal islet line), insulin promoter-eGFP reporter, imaging; reporter expression induced with tamoxifen; inhibition, % at 2 µM; 0.9% of 130,000 active; AID 1273;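 active = inhibition above the mean plus 3 SD, with well images judged a real hit on visual review, cut at about 60% in these data, passing the limit was not always enough; inconclusive = inhibition over the cutoff but images rejected on review; inactive = inhibition not above the cutoff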
PKD1 inh = blocks activity of human protein kinase D1; 0.056% of 200,000 active; Q15139; PKD1 kinase fluorescence polarization assay; inhibition, %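 (about 10 µM by stock and volumes)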;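 active = inhibition of 50% or more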;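 also: controls were vehicle for no effect and a reference inhibitor for full effect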
RGS16-Gao = modulates binding between human RGS16 and Galphao | bead-based flow cytometry RGS16-Galphao binding, fluorescence; actives lie on both sides | binding response (% of control), % at 10 µM | 0.38% of 220,000 active | AID 1441;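 active = below 25% or above 175%, edge rows of some plates excepted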;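 also: Galphao activated by GDP with aluminum fluoride before binding; 100% = wells without compound and 0% = beads without RGS; some results beyond the cut were filed as inactive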
Target sequence (O15492 whole entry, looked up): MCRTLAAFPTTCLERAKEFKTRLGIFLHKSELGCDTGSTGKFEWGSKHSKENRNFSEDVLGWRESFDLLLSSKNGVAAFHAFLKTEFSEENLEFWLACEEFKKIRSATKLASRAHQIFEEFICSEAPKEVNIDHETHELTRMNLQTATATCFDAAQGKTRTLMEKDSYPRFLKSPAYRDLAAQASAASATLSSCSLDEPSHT
Target sequence (P09471 whole entry, looked up): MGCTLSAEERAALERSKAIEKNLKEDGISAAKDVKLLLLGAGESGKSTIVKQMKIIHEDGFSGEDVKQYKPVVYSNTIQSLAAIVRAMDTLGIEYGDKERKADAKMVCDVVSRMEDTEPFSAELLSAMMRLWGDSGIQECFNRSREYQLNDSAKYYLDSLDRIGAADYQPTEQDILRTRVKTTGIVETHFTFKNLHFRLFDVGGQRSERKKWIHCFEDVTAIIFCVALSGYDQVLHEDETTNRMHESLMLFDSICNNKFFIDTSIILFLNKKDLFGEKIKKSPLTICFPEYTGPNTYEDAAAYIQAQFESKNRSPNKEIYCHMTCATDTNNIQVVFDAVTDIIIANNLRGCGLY
HSV replic up = HSV replication enhancement; HSV replication augmentation in cells, fold increase; maximum fold increase; 0.005% of 220,000 active;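 active = peak rise of 1.5-fold or more in the series; inconclusive = self-fluorescent or not available for retest; tested in PC3 cells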;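 also: first round at 10 µM; read as green reporter fluorescence; hits show the peak of a series up to 25 µM; 1 = signal of infected wells without compound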
Insulin prom inh cell count = further read-out of Insulin prom inh, marked with its call; normalized cell count, %; measured here: cell count, toxicity; reference of the scale not given here;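 cells exposed to compound for 48 h; stained nuclei by imaging scaled within each plate; lower means fewer cells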
HSV replic up primary fold = further read-out of HSV replic up, marked with its call; fold increase; compound at 10 µM; measured here: primary screen fold increase 10 uM; tested in PC3 cells;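 GFP signal in the first replicate; 1 = infected wells without compound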
Active calls of the source: *; i = inactive; ? = inconclusive; . = not tested or not shown.

SMILES	GALR2 ag	Insulin prom inh	Insulin prom inh cell count	PKD1 inh	RGS16-Gao	HSV replic up	HSV replic up primary fold
COC(=O)c1cc2occc2n1Cc1nc(-c2ccccc2C)oc1C	-1.6	-46	95	-5	102	.	.
Cc1cccc(CN2CCN(CCCc3ccccc3)CC2)c1	.	.	.	1	102	i	1
Fc1cccc(CSc2ccc(-c3ccc4c(c3)OCO4)nn2)c1	0.2	.	.	-4	27	i	0.99
C/C(N)=C(/C#N)C(=O)COc1ccc(Cl)cc1Cl	.	-25	106	1	102	i	1.1
COc1ccc(S(=O)(=O)Cc2ccc(C(=O)NCc3cccnc3)o2)cc1	-4.0	.	.	-3	105	i	1.2
CC(C)CC(NC(N)=O)C(=O)NCCc1ccc(Cl)cc1Cl (configuration not stated)	.	.	.	-4	103	i	1.1
COc1ccc(OC2C(=O)N(c3ccc(F)cc3)C2c2ccc(OC)c(OC)c2)cc1 (configuration not stated)	-0.8	.	.	-6	99	i	0.95
Cc1cc(NC(=O)CSc2nc(C(C)C)nc3c2c(=O)n(C)c(=O)n3C)no1	-2.1	.	.	-2	99	i	1.3
CN(CC(=O)NC1CCCc2ccccc21)C1CCCCC1 (configuration not stated)	.	.	.	-2	96	i	1
Nc1nc2n(n1)C(c1ccc(Cl)cc1)CC(c1ccc(F)cc1)N2 (configuration not stated)	0.0	.	.	1	107	i	1.1
O=C(NC1(C(F)(F)F)C(=O)Nc2c1c(=O)[nH]c(=O)n2Cc1ccccc1)c1ccco1 (configuration not stated)	-1.5	19	56	-5	107	i	0.97
Cc1ccccc1C(=O)Nc1ccc(S(=O)(=O)N2CCN(C)CC2)cc1	-1.4	-21	103	1	99	i	0.98
O=C(O)/C(=C\c1ccccc1)c1ccccc1	.	.	.	.	105	i	0.89
CCOC(=O)C1=C(C)NC(=O)CC1c1cc2c(cc1Br)OCO2 (configuration not stated)	-1.9	-19	132	5	86	i	0.92
Cc1ccc2cc(C(c3nnnn3C3CCCC3)N(Cc3cccnc3)Cc3ccco3)c(=O)[nH]c2c1 (configuration not stated)	-0.1	.	.	-8	93	i	1
CCCC(C)C(=O)Nc1ccc(Cl)cc1Cl (configuration not stated)	0.2	-11	171	-9	112	i	1.1
Cn1c(SCC(=O)c2ccc(F)cc2)nc2cccnc21	-2.0	.	.	-12	87	i	0.96
CCn1c(/C=N/n2cnnc2)nc2ccccc21	-1.1	.	.	7	104	i	0.98
COC(=O)C1CSC(C(=O)OC)N1C(=O)CN1CCN(c2ccc(OC)cc2)CC1 (configuration not stated)	.	.	.	-4	101	i	0.98
CCOC(=O)c1ccc(NC(=O)CCc2ccc(C)o2)cc1	-3.6	3	97	-7	98	i	0.98
CCOC(=O)c1c(C)c(C)n(Cc2cccc(OC)c2OC)c1C	-2.0	-79	117	4	84	i	1
O=C1CSC(c2cccnc2)N1Cc1ccc(Cl)cc1Cl (configuration not stated)	.	.	.	.	95	i	1.1
COc1ccc(Cl)cc1C(=O)Nc1ccc(S(=O)(=O)N2CCCC2)cc1	0.7	-30	96	3	101	.	.
O=C(CSc1ncccn1)c1ccccc1Br	-0.4	24	82	-7	96	i	0.88

One compound at a time (already shown). Screens in order: GALR2 ag | Insulin prom inh | Insulin prom inh cell count | PKD1 inh | RGS16-Gao | HSV replic up | HSV replic up primary fold
Listed for CCn1c(/C=N/n2cnnc2)nc2ccccc21 = -1.1 | . | . | 7 | 104 | i | 0.98
Listed for COC(=O)C1CSC(C(=O)OC)N1C(=O)CN1CCN(c2ccc(OC)cc2)CC1 (configuration not stated) = . | . | . | -4 | 101 | i | 0.98

Following part:
SMILES	GALR2 ag	Insulin prom inh	Insulin prom inh cell count	PKD1 inh	RGS16-Gao	HSV replic up	HSV replic up primary fold
Clc1cccc(-c2cc3nc4c(c(NCc5ccco5)n3n2)CCCC4)c1	-2.3	.	.	7	104	i	0.74
COc1ccccc1NC(=S)NNC(=S)Nc1ccc(OC(F)F)cc1	0.1	.	.	-3	101	i	0.94
Cc1cccc2sc(N(CCN(C)C)C(=O)/C=C/c3cccs3)nc12	0.4	.	.	-10	98	i	0.84
COc1ccc(-n2ncc3c(N4CCN(c5cc(C)ccc5C)CC4)ncnc32)cc1	-2.4	.	.	2	102	i	0.75
COc1ccccc1NS(=O)(=O)c1cc(NC(=O)CCC2CCCC2)ccc1N1CCOCC1	.	.	.	5	99	i	0.83
Cc1sc2ncn(CC(=O)NCC3COc4ccccc4O3)c(=O)c2c1S(=O)(=O)N1CCOCC1 (configuration not stated)	.	.	.	-1	99	i	1
O=C(CCN1CCc2ccccc2C1)Nc1ccccc1	-3.9	.	.	-13	104	i	1.1
O=c1cc(-c2ccccc2)nc2cc(-c3ccco3)[nH]n12	.	.	.	.	103	?	.
O=C(Nc1ccc2nc(-c3ccco3)[nH]c2c1)c1ccco1	1.4	82*	102*	-3	101	i	0.89
C/C(=N\OCC(=O)Nn1c(=O)[nH]c2ccccc2c1=O)c1cccs1	.	.	.	-2	105	i	1
CC(=O)c1ccccc1N(C(=O)c1ccco1)C(C(=O)NC1CCCC1)c1ccc(N2CCOCC2)cc1 (configuration not stated)	.	.	.	1	100	i	0.89
CCC(c1nnnn1Cc1ccc2c(c1)OCO2)N1CCN(c2ccccc2)CC1 (configuration not stated)	0.2	65	57	-5	101	i	0.89
O=C(COC(=O)Cc1ccccc1[N+](=O)[O-])NCc1ccc(F)cc1	0.7	.	.	-2	102	i	0.78
CC(C)CC(=O)Nc1ccccc1N1CCOCC1	-2.0	23	125	2	105	i	1
O=S(=O)(c1ccccc1)N1CCCC1c1nc2ccccc2s1 (configuration not stated)	-1.4	8	152	-1	93	i	0.83
COC(=O)[C@@H]1C[C@H]1[C@@H](NC(=O)c1ccccc1)c1ccccc1	-1.4	-48	102	5	73	i	0.81
CC(C)n1cc(C(=O)c2ccccc2O)cc(C#N)c1=O	.	-33	141	-1	99	i	0.86
Cc1ccc(C(=O)C2CCN(S(=O)(=O)c3c(C)noc3C)CC2)cc1	.	.	.	.	104	i	1
COc1cc(C)nc(N2CCCC(C(=O)Nc3ccccc3Br)C2)n1 (configuration not stated)	.	.	.	-6	108	i	0.98
COc1ccc(S(=O)(=O)N2CCCN(CC(=O)Nc3ccc(OC)c(Cl)c3)CC2)cc1	-2.0	24	114	-8	97	.	.
O=C(Nc1ccc(F)c([N+](=O)[O-])c1)c1ccc2c(c1)OCCO2	.	-86	88	-8	103	i	0.87
COC(=O)c1ccc(Cn2cc(Cl)cn2)cc1	-1.4	-13	114	-21	106	i	0.83
Cc1cc(N)n(-c2ccc3ccccc3c2)n1	-2.4	63	147	-8	98	i	1.1
Cc1cc2ccccn2c1C(C[N+](=O)[O-])c1ccc(N(C)C)cc1 (configuration not stated)	-1.0	20	132	-1	85	i	0.98
COc1ccccc1NC(=S)N(CCCN(C)C)Cc1cc2cc3c(cc2[nH]c1=O)OCO3	.	.	.	-2	90	i	0.95
Cc1nc([N+](=O)[O-])c(SCC(O)CCl)n1Cc1ccc(Cl)cc1 (configuration not stated)	.	.	.	-3	103	i	0.9
O=C(Nc1ccc(N2CCCC2)cc1)c1cccc(-c2cc3ccccc3oc2=O)c1	-1.9	.	.	1	40	i	0.83
Cc1cc(NCCCn2ccnc2)n2nc(-c3ccc(Cl)cc3)cc2n1	.	.	.	0	105	i	0.85
COc1cc(CNCCCN2CCOCC2)ccc1OCC(=O)NC(C)(C)C	.	.	.	-5	103	i	1.1
CCCc1cc(=O)oc2c(C)c(O)c(CN3CCCCC3)cc12	0.8	.	.	-12	113	i	0.96
CCCN(CCC)CC(O)CN(c1cc([N+](=O)[O-])ccc1OC)S(=O)(=O)c1ccccc1 (configuration not stated)	-0.7	-75	99	-9	101	.	.
CC(=O)NC/C(C)=N\Nc1ccc([N+](=O)[O-])cc1	.	-41	166	-3	103	i	1.1
O=C(Cc1coc(-c2ccc(F)cc2)n1)NC1CCCCC1	-1.3	-26	114	-7	101	i	0.91
COc1cc(NC(=O)C/C(C)=N/NC(=O)C(=O)NC2CCCCC2)c(OC)cc1Cl	.	.	.	5	106	i	1
COc1cccc(NC(=O)CSc2nnc(-c3cccs3)n2C)c1	-1.1	8	67	-1	94	i	0.91
Oc1c(C(c2cccs2)N2CCOCC2)sc2ncnn12 (configuration not stated)	-2.2	.	.	-5	99	i	0.91
CCN1CCN(Cc2c(O)ccc3c(=O)c(-c4ccc(OC)c(OC)c4)c(C(F)(F)F)oc23)CC1	-0.8	.	.	3	104	i	0.81
Cc1ccc2nc(N(CCCN(C)C)C(=O)CN3C(=O)c4ccccc4C3=O)sc2c1	.	12	114	3	103	i	0.73
O=c1[nH]cc(N(CCO)CCO)c(=O)[nH]1	.	.	.	.	101	i	0.94
CC(Cl)C(=O)Nc1ncc(C(F)(F)F)cc1Cl (configuration not stated)	-2.3	34	130	-3	99	i	0.94
O=C(Nc1nc2ccc(F)cc2s1)C1=NN(c2ccccc2)C(=O)CC1	-0.8	43	95	-8	111	i	1.1
CCC(C(=O)O)N1C(=O)C2CCCCC2C1=O (configuration not stated)	.	.	.	.	103	i	0.98
CCN1CCN(C(=O)CN(Cc2ccccc2)S(C)(=O)=O)CC1	0.5	-15	203	6	102	i	0.88
COc1ccc(-c2nc(SCC(=O)NC3CCCC3)c(-c3ccc(OC)cc3)[nH]2)cc1	0.7	27	102	-13	123	.	.
COc1ccc(/C=C/c2nc3ccccc3n2C)cc1	.	11	153	-6	99	i	1
O=[N+]([O-])/C=C/c1cc2ccccc2[nH]1	.	.	.	.	96	i	0.83
COC(=O)CCN(C(C)=O)c1ccc(N)cc1	-1.5	.	.	4	98	i	0.84
COCCOC(=O)C1=C(C)NC(=O)NC1c1ccc(-c2ccc(F)cc2)o1 (configuration not stated)	.	-50	109	-1	109	i	0.96
CO/N=C/C(=N\Nc1cc(OC)cc(OC)c1)C(=O)c1ccccc1	.	-40	94	6	102	i	1
Cc1cccc(NC(=O)CSc2nnc(-c3ccccc3)n2N)c1	-1.6	-48	151	-7	105	i	0.91
COC(=O)c1ccc(Cn2nc([N+](=O)[O-])c(Br)c2C)cc1	.	.	.	.	104	i	0.97
CCC(Sc1nc(N)cc(=O)[nH]1)C(=O)Nc1cc(C)on1 (configuration not stated)	.	.	.	-1	103	i	1.1
O=C(c1ccco1)N1CCN(c2ccc([N+](=O)[O-])c(N3CCOCC3)c2)CC1	.	7	159	1	50	i	0.91
CN(C)c1ccc(/C=N/NC(=O)c2ccccc2)cc1	.	-10	114	2	98	i	0.86
Cc1ccc(NC(=O)c2ccc(Nc3c([N+](=O)[O-])cc([N+](=O)[O-])cc3[N+](=O)[O-])cc2)cc1	-1.5	-7	104	-9	101	i	0.56
N#Cc1c2c(c(-c3ccccc3Cl)[nH]c1=S)CCCC2	.	0	64	1	84	i	1.1
FC(F)Oc1ccc(-n2cc(-c3ccccc3)[n+]3c2CCCCC3)cc1	.	.	.	.	103	i	0.7
CN(C)C1(CNC(=S)Nc2ccccc2C(F)(F)F)CCCCC1	.	.	.	2	100	i	0.95
CCOC(=O)c1ccc(NC(=S)N2CCN(CCN=CC3=C(O)CC(C)(C)CC3=O)CC2)cc1	.	0	118	-7	100	i	0.92
Fc1ccc(COc2ccc(Br)cc2CNCC2CCCO2)cc1 (configuration not stated)	.	.	.	-4	99	i	0.87

Reprinted at random: 6 records from the list.
SMILES	GALR2 ag	Insulin prom inh	Insulin prom inh cell count	PKD1 inh	RGS16-Gao	HSV replic up	HSV replic up primary fold
FC(F)Oc1ccc(-n2cc(-c3ccccc3)[n+]3c2CCCCC3)cc1	.	.	.	.	103	i	0.7
CN(C)C1(CNC(=S)Nc2ccccc2C(F)(F)F)CCCCC1	.	.	.	2	100	i	0.95
Fc1ccc(COc2ccc(Br)cc2CNCC2CCCO2)cc1 (configuration not stated)	.	.	.	-4	99	i	0.87
O=C(c1ccco1)N1CCN(c2ccc([N+](=O)[O-])c(N3CCOCC3)c2)CC1	.	7	159	1	50	i	0.91
CCC(Sc1nc(N)cc(=O)[nH]1)C(=O)Nc1cc(C)on1 (configuration not stated)	.	.	.	-1	103	i	1.1
COC(=O)c1ccc(Cn2nc([N+](=O)[O-])c(Br)c2C)cc1	.	.	.	.	104	i	0.97

Further entries.
SMILES	GALR2 ag	Insulin prom inh	Insulin prom inh cell count	PKD1 inh	RGS16-Gao	HSV replic up	HSV replic up primary fold
CCN1C(=O)CSC1=NC1C2CC3CC(C2)CC1C3 (configuration not stated)	-2.6	14	84	-6	102	i	0.95
O=S1(=O)CC(NCc2ccccc2)C(Nc2ccccc2)C1 (configuration not stated)	-1.9	-81	68	-8	106	i	0.91
CC1CCc2c(sc3ncnc(SCC(=O)c4ccccc4)c23)C1 (configuration not stated)	-0.5	38	126	-4	92	i	0.93
CCCN(CCC)S(=O)(=O)c1ccc(C(=O)Nc2c(C)n(C)n(-c3ccccc3)c2=O)cc1	.	.	.	-11	98	i	1
